Screening results: PubChem, Johns Hopkins Ion Channel Center
KCNQ2 block: KCNQ2 potassium channel inhibitors, primary screen, cell-based, CHO-K1, FluxOR thallium flux, B-score (AID 2156); O88943; 20 min; stronger effect = lower value; only compounds with negative scores are shown here; some inactives read as strong as hits; B-score at 10 µM; 1.1% of 310,000 active;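 active means fluorescence ratio B-score at most minus 3 library SDs, with starting brightness B-score within 2 library SDs, cut at about -5.5 in these data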
Target sequence (O88943 whole entry, looked up): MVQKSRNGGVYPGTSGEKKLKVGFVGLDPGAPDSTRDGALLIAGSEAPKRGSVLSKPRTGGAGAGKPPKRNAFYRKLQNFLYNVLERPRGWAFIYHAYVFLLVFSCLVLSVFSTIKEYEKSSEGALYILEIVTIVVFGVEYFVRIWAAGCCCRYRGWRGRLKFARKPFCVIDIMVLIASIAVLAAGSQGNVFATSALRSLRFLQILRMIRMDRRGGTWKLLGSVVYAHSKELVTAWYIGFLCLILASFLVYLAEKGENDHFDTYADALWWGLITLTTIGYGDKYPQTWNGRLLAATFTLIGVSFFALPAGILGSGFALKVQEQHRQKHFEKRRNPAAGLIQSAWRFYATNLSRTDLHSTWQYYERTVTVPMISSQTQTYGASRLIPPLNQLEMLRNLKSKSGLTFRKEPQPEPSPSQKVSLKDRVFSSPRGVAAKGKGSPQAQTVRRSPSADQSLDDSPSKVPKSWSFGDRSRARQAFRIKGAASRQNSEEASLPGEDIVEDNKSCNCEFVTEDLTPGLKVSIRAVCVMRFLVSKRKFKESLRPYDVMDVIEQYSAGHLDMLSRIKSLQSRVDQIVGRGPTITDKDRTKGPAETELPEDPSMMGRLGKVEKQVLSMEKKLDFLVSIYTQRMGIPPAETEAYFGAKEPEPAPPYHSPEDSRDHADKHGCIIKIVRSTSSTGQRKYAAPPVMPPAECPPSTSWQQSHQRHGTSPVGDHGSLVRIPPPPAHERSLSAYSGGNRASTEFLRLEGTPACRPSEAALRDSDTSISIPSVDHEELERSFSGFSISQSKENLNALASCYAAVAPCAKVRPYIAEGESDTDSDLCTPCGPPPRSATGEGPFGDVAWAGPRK
KCNQ2 block baseline: further read-out of KCNQ2 block, marked with its call; B-score; measured here: initial fluorescence intensity artifact check;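 brightness before thallium and not channel activity; 0 = typical well and far values either way flag optical interference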
* hit, by the source's call; i = inactive. These rows are one share of the data. The share of hits here may be higher or lower than overall.

KCNQ2 block | KCNQ2 block baseline | Compound
i | 0.73 | C=CCN1C(=O)C(O)(CC(=O)c2ccc(Cl)cc2)c2ccccc21 (configuration not stated)
i | -0.76 | O=C(CSc1nnc(Nc2ccccc2)s1)NCc1ccco1
i | -0.03 | C=CCOC(=O)C1=C[C@H](C(C)(C)C)[C@@H](CCCO)[C@H](OCC)O1
i | -0.67 | CC(=O)c1ccc(N2CCN(CC(=O)Nc3ccc4c(c3)OCCO4)CC2)cc1
i | 1.3 | N#CC1=C(N)Nc2nc3ccccc3n2C1c1ccc(Cl)cc1 (configuration not stated)
i | -0.13 | CN(CCO)c1nc2c(c(=O)n(Cc3ccc(Cl)cc3)c(=O)n2C)n1C
i | -2.6 | Cc1ccc(-n2nc3c(=O)n(CCCC(=O)NCc4cccc(F)c4)nc(C)c3c2C)cc1
i | -0.21 | COc1ccc(N2CCN(C(=O)CC34CC5CC(CC(C5)C3)C4)CC2)c([N+](=O)[O-])c1
i | 0.51 | COc1cccc(NC(=O)CN(C)C(=O)c2ccccc2-c2nc3ccccc3s2)c1
i | 0.29 | Cc1cc(C(=O)COc2ncnc3sccc23)c(C)n1C
i | 1.3 | COc1cc(CC(=O)N/N=C/c2ccc([N+](=O)[O-])cc2)c([N+](=O)[O-])cc1OC
i | -1.2 | CCC1SC(=Nc2cccc(C)c2)NC1=O (configuration not stated)
i | 1.3 | CC(=O)Nc1ccnc(-c2cccnc2)n1
i | -0.72 | O=C(c1cc2cc(Cl)ccc2[nH]1)N1CCc2ccccc2C1
i | 0.58 | CCOc1ncccc1C(=O)Nc1cc(S(=O)(=O)N2CCOCC2)ccc1N1CCCC1
i | -1 | CCC1(C)CC2(CCCN(CCC(=O)c3ccccc3)C2)CCO1 (configuration not stated)
i | 0.22 | Cc1cccc(N2CCN(Cc3nc(-c4cccc(Oc5ccccc5)c4)oc3C)CC2)n1
i | -0.01 | CC1CCN(CCOCCOc2ccc(Cl)cc2Br)CC1
i | 2.4 | CCC(CC)C(=O)N1CCN(c2cccc(C)c2C)CC1
i | 0.12 | Cc1cccc(NC(=O)C2CCN(S(=O)(=O)c3cccc4nonc34)CC2)c1

Six successive entries from above:
KCNQ2 block | KCNQ2 block baseline | Compound
i | 0.51 | COc1cccc(NC(=O)CN(C)C(=O)c2ccccc2-c2nc3ccccc3s2)c1
i | 0.29 | Cc1cc(C(=O)COc2ncnc3sccc23)c(C)n1C
i | 1.3 | COc1cc(CC(=O)N/N=C/c2ccc([N+](=O)[O-])cc2)c([N+](=O)[O-])cc1OC
i | -1.2 | CCC1SC(=Nc2cccc(C)c2)NC1=O (configuration not stated)
i | 1.3 | CC(=O)Nc1ccnc(-c2cccnc2)n1
i | -0.72 | O=C(c1cc2cc(Cl)ccc2[nH]1)N1CCc2ccccc2C1

(listing goes on)
KCNQ2 block | KCNQ2 block baseline | Compound
i | -0.36 | CCC(c1nnnn1CCc1ccccc1)N(Cc1ccco1)Cc1cc2c(C)ccc(C)c2[nH]c1=O (configuration not stated)
i | 0.32 | O=C(O)C1C2C=CC(C2)C1C(=O)NCCCc1ccccc1 (configuration not stated)
i | 0.26 | Cc1ccc(NC(=S)NCC23C=CC(O2)C2C(=O)N(c4ccc(C)cc4)C(=O)C23)cc1 (configuration not stated)
i | -0.04 | Cc1cc(C)cc(NC(=O)C(Nc2ccccc2)c2ccccc2)c1 (configuration not stated)
i | 0.95 | CCOC(=O)c1c(NC(=O)C(C)Sc2c[nH]c3ccccc23)sc2c1CCC2 (configuration not stated)
i | 0.59 | O=S(=O)(c1ccc2ccccc2c1)N1CCCCC1
i | -0.66 | Cc1ccc(C(=O)OC(C(=O)Nc2ccc(Cl)cc2C(F)(F)F)c2ccccc2)cc1 (configuration not stated)
i | 1.3 | CCS(=O)(=O)c1ccc(-c2csc(-c3ccc(Cl)cc3)n2)c(Cl)c1Cl
i | -1.1 | COc1cccc(NC(=O)CN2C(=O)NC(C)(c3ccc(C)cc3)C2=O)c1 (configuration not stated)
i | 2 | CC(=O)c1c(C)oc2ccc(NS(=O)(=O)c3ccc(C(=O)O)cc3)cc12
i | 0.18 | COc1ccc(C(=O)NCCC2=CCCCC2)cc1[N+](=O)[O-]
i | -0.82 | O=C(Nc1ccccc1[N+](=O)[O-])C1=C(O)CCn2c1nc1ccccc12
i | -3.1 | Cc1sc2nc(CSc3ccc([N+](=O)[O-])c(C(F)(F)F)c3)[nH]c(=O)c2c1C
i | -1 | Nc1nn2c(-c3ccccc3)cc(=O)[nH]c2c1N=Nc1ccc(O)cc1
i | 2.7 | CCOC(=O)c1c(C)sc2c1N(C(=O)CCl)c1cc(Cl)ccc1S2
i | 0.05 | Cc1cccc(Cn2c(=O)c3c(nc4n3CCCN4Cc3ccccc3)n(C)c2=O)c1
i | 1.1 | O=C(Nc1ccccc1)[C@@H]1CC=C[C@@H]2CCN(C3CCCCC3)C(=O)[C@@H]21
i | 0.3 | Cc1ccccc1C(=O)Nc1c(C(=O)N2CCCC2)cnn1-c1ccccc1
i | 0.08 | O=C(NCCCNC1CCCCC1)c1ccc(/C=N/O)nc1
i | 0.62 | Cc1ccc(NC(=S)NCc2ccccn2)cc1

Later entries.
KCNQ2 block | KCNQ2 block baseline | Compound
i | 1.3 | N#C/C(=C(/O)c1cc2ccccc2o1)c1nc2ccccc2s1
i | 1.7 | CCN(C(=O)c1cc(Cl)ccc1Cl)C1CCS(=O)(=O)C1 (configuration not stated)
i | -1.3 | CC(C)(C)c1csc(NNC(=O)c2ccc(Cl)cc2)n1
i | -0.36 | Cc1cc(O)ccc1N=Cc1c(C(F)(F)F)[nH][nH]c1=O
i | 0.83 | CC(C)OC(=O)C(C#N)c1nc2ccccc2nc1N1CCCC1 (configuration not stated)
i | 0.66 | CC(Sc1nc2ccccc2c(=O)[nH]1)C(=O)O (configuration not stated)
i | 0.88 | COc1ccc(-c2nnn(CC(=O)N(Cc3cccs3)C(C)C(=O)NC3CCCC3)n2)cc1OC (configuration not stated)
i | -1.8 | O=C(NC1CCN(C(=O)N2c3ccccc3Sc3ccccc32)CC1)c1ccccc1Cl
i | 2.9 | CCCCCCCCc1nc(SC(C)C(=O)O)n[nH]1 (configuration not stated)
i | 0.36 | O=C(C1=C[C@@H](C2CC2)C[C@@H](OCCCCO)O1)N1CCN(Cc2ccc3c(c2)OCO3)CC1
i | 1.6 | COC(=O)c1sccc1NS(=O)(=O)c1ccccc1
i | -1.3 | O=C1NC2(CCCCC2)C(=O)N1c1ccc(Cl)cc1
i | 0.83 | COc1ccccc1OCC(O)CN1CCN(CC(=O)Nc2c(C)cccc2C)CC1 (configuration not stated)
i | -0.45 | CC1CC(C)CN(CCCNC(=O)c2ccc3c(c2)N(Cc2ccccc2)C(=O)c2ccccc2S3=O)C1 (configuration not stated)
i | 2.5 | NC(=O)NC(CC(=O)NCCCc1ccccc1)c1ccc(Cl)cc1 (configuration not stated)
i | 0.3 | CNC(=O)c1ccccc1S(=O)(=O)c1ccccc1C#N
i | 1.4 | CCOC(=O)C1=NNC(C(=O)c2ccc(Cl)cc2)C1c1ccc(OC)cc1 (configuration not stated)
i | 3.3 | CCOC(=O)C1CCCN(C(=O)CCCn2nnnc2CN2CCC(C)CC2)C1 (configuration not stated)
i | -0.14 | Cn1cc([C@@H]2C[C@H]3CN(Cc4cccc(Cl)c4)C(=O)[C@]34CCCN24)c2ccccc21
i | 1.6 | CCC(C)C(NC(=O)C(CC(C)C)NC(=O)C(CO)NC(=O)C1CCC(=O)N1)C(=O)OC (configuration not stated)

(cont.)
KCNQ2 block | KCNQ2 block baseline | Compound
i | -0.03 | Cc1ccc(NC(=O)NC(=O)CN2C(=O)NC3(CCCCCCC3)C2=O)c(C)c1
i | 0.06 | COC(=O)/C=C/C(=O)N1CCN(c2cccc(Cl)c2)CC1
i | -0.04 | O=[N+]([O-])c1ccc2nc(-c3ccc(Cl)cc3)[nH]c2c1
i | -0.23 | N#CCSc1nnc(C2CCCCC2)n1-c1ccccc1
i | 0.23 | Cc1cc(C)cc(C(=O)NC(CC(N)=O)c2ccc(NCCN3CCOCC3)c([N+](=O)[O-])c2)c1 (configuration not stated)
i | -0.93 | Cc1cccn2c(CNCC3(c4ccccc4)CCCC3)c(C(=O)N3CCOCC3)nc12
i | -1.3 | CSc1nc2ccc(NC(=O)c3ccccn3)cc2s1
i | 0.04 | CC(OC(=O)c1nc(Cl)ccc1Cl)C(=O)Nc1ccccc1F (configuration not stated)
i | 0.01 | CCN1/C(=C\C(C)=O)Sc2ccc(OC)cc21
i | 1.1 | Cn1c(C(=O)N2CCc3ccccc3C2)cc2c(=O)n3ccccc3nc21
i | 0.06 | Cc1cccc(NC(=O)C(=O)C2C(=O)Nc3ccccc32)c1 (configuration not stated)
i | -1.1 | COc1ccc(C)cc1NS(=O)(=O)c1ccc(-c2cnc(C3CC3)o2)cc1
i | 0.53 | O=C(O)C1Oc2cc3ccccc3cc2O1
i | -2.6 | O=[N+]([O-])c1ccc(S(=O)(=O)N2CCN(C3CCN(Cc4ccccc4)CC3)CC2)cc1
i | 2.5 | Cc1cccc(N2CCN(c3ccc(NC(=O)/C=C\C(=O)O)cc3)CC2)c1
i | 1.2 | COc1ccc(NC(=O)CNC(=O)Cn2c(C)cc3ccccc3c2=O)cc1OC
i | 0.17 | COC(=O)c1ccc(C(=O)OC)c(NC(=S)N2CCCC2)c1
i | 1.2 | CC(C)(C)NC(=O)CSc1nc2ccc(NC(=O)CSc3nnnn3Cc3ccccc3)cc2s1
i | 0.15 | CC(=O)NC(Cc1ccccc1C)C(=O)NC1CCN(C(=O)c2cccc(C)c2)CC1 (configuration not stated)
i | -1.4 | Cc1noc(C)c1C(=O)NCCc1c(C)[nH]c2ccccc12

Random excerpt: 6 entries already listed.
KCNQ2 block | KCNQ2 block baseline | Compound
i | 1.3 | CC(=O)Nc1ccnc(-c2cccnc2)n1
i | -1.3 | CSc1nc2ccc(NC(=O)c3ccccn3)cc2s1
i | -1.1 | COc1ccc(C)cc1NS(=O)(=O)c1ccc(-c2cnc(C3CC3)o2)cc1
i | 0.62 | Cc1ccc(NC(=S)NCc2ccccn2)cc1
i | 0.83 | CC(C)OC(=O)C(C#N)c1nc2ccccc2nc1N1CCCC1 (configuration not stated)
i | -0.76 | O=C(CSc1nnc(Nc2ccccc2)s1)NCc1ccco1

Further records follow.
KCNQ2 block | KCNQ2 block baseline | Compound
i | 1.2 | CC(C)C(OC(=O)c1nsc(Cl)c1Cl)C(=O)NC(C)(C)C (configuration not stated)
i | 0.38 | c1ccc(-c2nnnc3ccccc23)cc1
i | -0.01 | CC(CN1CCCC1)OC(=O)c1ccc(Cl)cc1 (configuration not stated)
i | 0.02 | CCOc1ccccc1OCCCC(=O)N(C)CC(=O)Nc1cc(C)ccc1C
i | -0.36 | COc1cccc(NC(=O)c2cc(OC)c(OC)c(OC)c2Br)c1
i | 0.01 | CC(C)c1cccc(C(C)C)c1NC(=O)c1ccc(OCC(=O)NCc2ccccc2)cc1
i | -3 | N#Cc1nc(COc2ccc(Br)cc2)oc1NCCN1CCOCC1
i | 1.2 | COc1cc(C2N(C)CCC3(OCCO3)C2(C)C)cc(OC)c1OC (configuration not stated)
i | 1.5 | CN(CC(=O)Nc1ccc(N2CCOCC2)cc1)C(=O)c1cc(F)c(F)cc1Cl
i | 0.81 | COC(=O)C1C(=O)OC(C)(C)C1C(C)C(=O)c1ccccc1 (configuration not stated)
i | 0.38 | CCOc1ccc(NC(=O)c2sccc2-n2cccc2)cc1
i | -0.95 | O=C(CSc1ccsc1[N+](=O)[O-])NCc1ccccc1
i | -1.2 | COc1ccc(NC(=O)N2Cc3ccccc3CC2C(=O)NC(C)(C)C)cc1 (configuration not stated)
i | 0.14 | O=C(COc1ccc2c3c(c(=O)oc2c1)CCC3)NCC1CCC(C(=O)O)CC1 (configuration not stated)
i | 0.41 | COc1ccccc1NC(=O)COC(=O)C1CC1
-6.2* | -0.39* | Cc1ccc(N(C(=O)Cc2cccs2)C(C(=O)NC2CCCCC2)c2ccccn2)cc1C (configuration not stated)
i | -1.2 | Oc1ccc(N2CCN(C(c3ccncc3)c3nnnn3C3CCCC3)CC2)cc1 (configuration not stated)
i | 1.4 | COc1cc2c(cc1OC)C(C(=O)N1CCOCC1)C(c1cccs1)N(C)C2=O (configuration not stated)
i | 0.67 | Cc1ccc(S(=O)(=O)N2CCN(S(=O)(=O)N3CCC(C)CC3)CC2)c(C)c1
-6.2* | -1.2* | CN1/C(=C\C(=O)COC(=O)c2ccc(O)cc2)C(C)(C)c2ccccc21

Remaining list, next part.
KCNQ2 block | KCNQ2 block baseline | Compound
i | 0.41 | COc1ccc(OC2C(=O)N(CCc3ccc(OC)c(OC)c3)C2c2ccc3c(c2)OCO3)cc1 (configuration not stated)
i | 1.5 | COc1cccc2[nH]c3c(N4CCC(C(N)=O)CC4)ncnc3c12
i | -0.12 | Cc1ccc(C(c2nnnn2Cc2cccs2)N2CCN(Cc3ccc4c(c3)OCO4)CC2)cc1 (configuration not stated)
i | 0.32 | CC(=O)O[C@H]1C(=O)[C@@]2(C)[C@H]([C@H](OC(=O)c3ccccc3)[C@]3(O)C[C@H](OC(=O)[C@H](O)C(NC(=O)c4ccccc4)c4ccccc4)C(C)=C1C3(C)C)[C@]1(OC(C)=O)CO[C@@H]1C[C@@H]2O (some centres not stated)
i | -0.07 | CCCc1nnc(SCC(=O)N2CCOCC2)n1CCCOC
i | -1.1 | O=C(/C=C/c1cccnc1)c1ccc(NC(=O)c2cccc(Br)c2)cc1
i | 0.93 | NC(=O)C1CCN(C(=O)c2ccccc2CCc2ccccc2)CC1
